Mtb hypoxia rep – inhibitors of hypoxia-regulated fluorescent reporter in Mycobacterium tuberculosis; M. tuberculosis hypoxia-regulated fluorescent reporter, fluorescence; fluorescence inhibition, % (test concentration not listed); hit rate 0.1% among 300,000; AID 1159583;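 active means 35 to 45% if threefold the growth effect, above 45% if 1.5-fold the growth effect; inactive means the rest, general growth blockers included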;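 further: wells of about 50 µL received 100 nL stock; 0% = vehicle wells and 100% = reference inhibitor wells; whole bacteria with a GFP reporter of the hypoxia response; strong numbers were not always called active; many hits fall short of the cut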
Sa ugtP lethal – kills S. aureus RN4220 lacking UgtP; S. aureus RN4220 ugtP deletion, OD600 growth, 16 h; some inactives read as strong as hits; growth inhibition, % (concentration not given with the values); hit rate 0.54% among 330,000; AID 1259309;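 active means z-score under -3 and OD600 up to 0.15 on both plates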;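 further: plate controls were untreated wells for no effect and antibiotic for full effect; wells of about 80 µL received 100 nL stock; the first replicate is given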
PrP UTR inh – suppresses PrP 5' UTR mRNA reporter expression. cell-based PrP 5' UTR mRNA reporter, plate reader. inhibition, % (concentration not given with the values). hit rate 0.35% among 340,000. AID 488862;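 active means every replicate at 50% or more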;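 further: 0 = median of the neutral control wells; tested in H4 reporter cells; numbers are from one replicate; inactives centre near -14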
BJeLR lethal – BJeLR cell viability loss; BJeLR (HRASV12) viability, CellTiter-Glo ATP luminescence, 48 h; reference of the scale not given here; inhibition, % (concentration not given with the values); hit rate 0.17% among 300,000;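 active means replicate mean above 50%; inconclusive means above 50% but judged a plate artefact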;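 further: 50 nL library stock added to about 25 µL; numbers are from one replicate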
Autofluor counter – flagged as autofluorescent in microsphere protease counterscreen | fluorescence intensity (concentration not given with the values) | compound autofluorescence counterscreen, microsphere flow cytometry; active compounds read high | AID 624483 | hit rate 3.1% among 360,000;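 active means at least 3 SD above the mean of all compounds, about 16000 in these data; inconclusive means too few beads counted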;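 further: 100 nL of 1 mM stock went into each well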
RN4220 kill – S. aureus RN4220 growth inhibition; OD600, 16 h; inhibition, % (test concentration not listed); hit rate 0.33% among 330,000; AID 1259311;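 active means z-score of -3 or lower and OD600 up to 0.18 on both plates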;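 further: plate controls were untreated cells for no effect and reference antibiotic for full effect; stock transfer was 100 nL into about 80 µL; one replicate is shown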
Mtb hypoxia rep growth – recorded beside Mtb hypoxia rep, whose call it bears; growth inhibition, %; measured here: M. tuberculosis growth (absorbance);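 0% = vehicle and 100% = reference antibiotic; read after six days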
* hit, by the source's call; ? = inconclusive; nt = not tested or not shown; & = joins results of further samples.

structure,Mtb hypoxia rep,Mtb hypoxia rep growth,Sa ugtP lethal,PrP UTR inh,BJeLR lethal,Autofluor counter,RN4220 kill
Cc1c(-n2c(O)c(C3=c4ccccc4=NC3=O)sc2=S)c(=O)n(-c2ccccc2)n1C,6,19,0,5,-3,4501,2.6
Nc1nc(Nc2ccccc2)sc1C(=O)c1ccccc1,nt,nt,nt,-45,-6,4145,nt
CC1CCCN(C(=S)Nc2ccc(F)cc2)C1 (stereo not drawn),5,-2,2,-15,-2,4386,3.5
CCOc1ccccc1NC(=O)CCn1cccc1,3,3,3,-41,nt,3993,2.3
Cc1cc(C)c2c(c1)/C(=N/NS(=O)(=O)c1ccc(Br)cc1)CCC2,nt,nt,nt,-6,7,2603,nt
CC(C)NC(=O)NC(=O)CSc1ccc(S(=O)(=O)N2CCCC2)cn1,0,4,-2,-9,nt,8527,6.8
O=C(COc1cccc(Cl)c1Cl)Nc1ccc2c(c1)CCC2,-11,-9,-10,-12,6,2677,1.0
S=C1NCC(CC2CCCCC2)N1CCCCC1CCCCC1 (stereo not drawn),0,3,2,nt,nt,nt,-9.6
CCOC(=O)NNc1ccc(C(F)(F)F)cn1,-9,8,0,-22,-1,3564,4.0
CC1(C)Oc2ccc(C(=O)Nc3ccccc3F)cc2N(CC(=O)N2CCOCC2)C1=O,2,2,7,-40,-7,3572,3.9
COc1ccc(C2C(C#N)=C(N)Oc3c2ccc2cccnc32)cc1OC (stereo not drawn),4,2,20,3,15,3810,4.0
COc1cccc2oc3cc(C#Cc4ccccn4)ccc3c(=O)c12,4,4,20,nt,-11,nt,7.2
Cc1nnc(SCC(=O)Nc2ccc(C(N)=O)cc2)n1-c1ccccc1,-3,3,2,-21,-3,3780,2.3
Cc1cc(Cl)ccc1OCCCC(=O)Nc1cccc(-n2cnnn2)c1,11,3,-16,-19,3,5539,13
CC1=C(C(=O)OCc2ccc(C)cc2)C(c2ccc(O)c([N+](=O)[O-])c2)NC(=O)N1 (stereo not drawn),6,3,-3,-24,3,2506,5.6
CC(C)C(Nc1ncnc2c1oc1ccccc12)C(=O)O (stereo not drawn),-11,-10,10,-24,-2,4454,3.8
O=C(NCC(=O)N(c1ccc2c(c1)OCO2)C(C(=O)NC1CCCC1)c1ccncc1)c1ccco1 (stereo not drawn),16,11,-2,-6,7,3342,-2.3
CC(=O)Nc1cccc(NC(=O)C2CC(=O)N(CCc3ccc(F)cc3)C2)c1 (stereo not drawn),-8,5,0,-17,-12,5901,-1.8
COc1ccc(OC)c(/C=N/NC(=O)CC(=O)NC2CCCCC2)c1,nt,nt,nt,-21,-4,4221,nt
CC12CCC(=O)N1C(C(=O)Nc1nc(-c3ccc(F)cc3)cs1)CS2 (stereo not drawn),-3,-5,11,-26,-3,?,2.8
COc1ccccc1NC(=O)C1CCCN(c2cc(C)nc3ncnn23)C1 (stereo not drawn),7,11,-4,-7,-2,2902,-5.2
CC(C)NC(=O)c1onc(CSc2ccc(F)cc2)c1C(=O)O,15,7,4,0,-1,3600,8.3
Cn1c(SCC(=O)Nc2ccccc2F)nnc1-c1cc2ccccc2o1,0,-1,6,-24,-1,10168,2.9
O=C(C1CCC1)N1CCN(c2ccc(C(F)(F)F)cc2[N+](=O)[O-])CC1,10,1,4,-15,2,6580,3.3
CN(C)c1cc(=O)n2c(n1)SCCC2,nt,nt,-10,-11,-2,4729,1.1
COc1ccc(CN2CCc3ccc(NC(=O)c4ccncc4)cc3C2)c(F)c1,nt,nt,nt,-4,-4,5452,nt
CC(CCc1ccccc1)NC(=O)C1CCN(c2nnc(-n3cccc3)s2)CC1 (stereo not drawn),6,-1,15,-10,-13,5807,1.9
Cc1c(C(=O)Oc2cccc3cccnc23)cccc1[N+](=O)[O-],11,4,3,-2,-2,4346,13
COc1ccccc1NS(=O)(=O)c1cc(Cl)ccc1OC,nt,nt,1,-1,-8,3275,4.8
CCN(C(=O)CCN1C(=O)c2ccccc2S1(=O)=O)c1ccccc1,nt,nt,nt,-13,-2,?,nt
CCOC(=O)N1CCN(C(=O)C2CCN(S(=O)(=O)c3ccc(Br)s3)CC2)CC1,nt,nt,1,-3,8,4723,6.6
CCOC(=O)CSc1nn(C)c(=S)s1,nt,nt,1,-20,-2,5490,-0.7
O=C(CCC(=O)Nc1ccccc1Cl)NNC(=O)c1ccco1,1,2,2,-11,3,2182,2.5
CC(C)OC(=O)C1C(=O)CC(C)(O)C(C(=O)OC(C)C)C1c1ccc([N+](=O)[O-])cc1 (stereo not drawn),0,8,1,-27,-2,3879,-3.1
O=C(Nc1cccc(F)c1)Nc1ccc2c(c1)OCO2,4,3,1,-72,2,4232,-0.6
COc1cc(C)nc(N2CCC(C(=O)NC3CCCCC3)CC2)n1,7,10,1,2,11,8636,2.7
O=Nc1c(-c2c(O)[nH]c3cc(Br)ccc23)[nH]c2ccccc12,26,17,100*,-24,-4,5297,100*
COC(=O)c1ccc(=O)n(Cc2ccc3c(c2)OCO3)c1,0,11,-4,-19,-1,2418,2.0
O=C(Nc1cnc2ccccc2c1)N1CCOCC1,2,4,7,-38,6,4739,3.9
CCCC/C=C/C(NC(=O)c1ccc(-c2ccccc2)cc1)c1ccccc1 (stereo not drawn),nt,nt,nt,-12,19,3634,nt
CCNC(=S)N(CCc1ccccc1C)Cc1cc2cc(OC)c(OC)cc2[nH]c1=O,-7,-4,-1,-35,2,2558,4.2
O=C(CN1CCSc2ccccc21)NCCCc1ccccc1,13,8,-1,-16,nt,4120,4.5
CC(=O)N1CCCN(Cc2cn(-c3cccc(C)c3)nc2-c2cccc(F)c2)CC1,-12,-6,5,-8,10,3530,3.3
CSc1cccc(NC(=S)N(Cc2ccccc2)Cc2ccccn2)c1,9,12,11,-1,-5,4207,18
CC1(C(=O)N2CCN(c3ccccc3)CC2)CC1(Cl)Cl (stereo not drawn),22,8,7,-12,3,4150,15
c1ccc(COc2ccc(Nc3ncnc4nc[nH]c34)cc2)cc1,8,5,19,-34,-10,6273,-2.1
CCOC(=O)c1cnc2ccccc2c1NCc1ccco1,1,9,10,-14,3,4099,1.9
Cc1ccsc1/C=N/n1c(-c2cc(-c3ccccc3)n[nH]2)n[nH]c1=S,nt,nt,nt,-24,0,3614,nt
O=C1CC(c2ccc(F)cc2)Sc2ccccc2N1 (stereo not drawn),7,6,11,-29,-2,?,4.6
CC(=O)[C@@]1(O)C(C)CC2C3C=C(C)C4=Cc5c(cnn5-c5ccccc5)C[C@]4(C)C3C(O)C[C@@]21C (stereo partly drawn),-6,6,25,11,-1,2809,50
Cc1ccccc1NC(=O)COC(=O)CCc1nc2ccccc2c(=O)[nH]1,0,-6,2,-18,-6,4094,2.7
O=C(CSc1nnc(-c2cccs2)o1)N1CCCCC1,nt,nt,3,-52,-1,6086,2.9
COc1ccc2[nH]c(C)c(CCNC(=S)Nc3ccc(C)cc3)c2c1,8,-5,-7,-7,-6,2583,4.0
Cc1c(C(=O)Nc2ccc(C(=O)Nc3ccccc3)cc2)cccc1[N+](=O)[O-],1,1,4,-31,-7,3103,2.4
Cc1sc2nc(C(C)Nc3ccccc3N3CCOCC3)[nH]c(=O)c2c1C (stereo not drawn),0,15,6,-13,-2,3910,5.6
COc1cccc(C2=NOC(C(=O)Nc3ccc(OC)c(OC)c3)C2)c1 (stereo not drawn),7,2,2,-34,4,10066,7.0
COn1c(SCc2cccnc2)nc2ccccc2c1=O,6,3,-3,-16,0,3366,1.8
CS(=O)(=O)c1cccc(S(=O)(=O)N2CCN(c3ccccn3)CC2)c1,-7,-2,-3,-8,2,2804,1.7
CCOc1ccc(S(=O)(=O)Nc2ccncc2)c(C)c1C,0,-3,1,-19,4,4348,4.8
Cc1cccc(-c2cc(C(=O)N3CCCc4ccccc43)c3ccccc3n2)c1,7,6,17,-15,15,11000,-0.9

The list goes on.
structure,Mtb hypoxia rep,Mtb hypoxia rep growth,Sa ugtP lethal,PrP UTR inh,BJeLR lethal,Autofluor counter,RN4220 kill
CCN(CC)c1ccc(/C=C2\CCC(/C=N/NC(=O)c3ccc(=O)n(C)c3)=C2N2CCOCC2)cc1,nt,nt,nt,-16,-10,4169,nt
N#C/C(=C\c1ccc(O)c(O)c1)C(=O)NCCCc1ccccc1,nt,nt,nt,23,0,4305,nt
CCCOc1ccc(C(=O)NCC2OCCc3ccccc32)cc1OC (stereo not drawn),1,2,0,-35,0,3525,-1.2
CSc1nsc(SC)c1C(N)=O,-6,4,-1,-19,-4,?,-1.5
O=S(=O)(c1cccc2cccnc12)N1CCc2ccccc21,8,4,-6,-16,-2,2884,-9.0
C#CCNC(=O)C1=CC(C2CC2)CC(OCCCCO)O1 (stereo not drawn),2&8,11&4,-3&-4,nt,nt,nt,-1.3&3.0
CCN(c1ccccc1)S(=O)(=O)c1nnc(NC(=O)c2ccccc2OC)s1,4,-1,9,-3,5,5776,9.5
O=C(NCCOC(=O)c1ccc(C(=O)OCCNC(=O)c2ccccc2)o1)c1ccccc1,8,11,11,-21,0,3499,-3.5
CC(=O)Nc1ccc(/C=N/Nc2nncc3ccccc23)cc1,nt,nt,nt,-96,-2,3024,nt
COC(=O)c1ccc(-c2ccc(OC)c([C@H]3[C@H]4C=CC[C@@H](C)[C@@H]4C(=O)N3Cc3ccccc3)c2)cc1,nt,nt,nt,-17,-2,3866,nt
CCCc1cc(=O)oc2c(C)c(OCC(=O)NCCCn3ccnc3)ccc12,8,2,8,-6,7,4696,4.1
CCN(CC)C(=O)c1[nH]cnc1C(=O)NCc1ccc(CNC(=O)OC(C)(C)C)cc1,10,6,1,-27,nt,4131,7.1
O=C(COC(=O)CC1CC2CCC1C2)NCc1ccccc1 (stereo not drawn),-2,6,2,-36,nt,3413,-0.9
CCN1CCN(C(c2cc(OC)ccc2OC)c2nnnn2Cc2ccccc2)CC1 (stereo not drawn),nt,nt,-2,-10,7,4014,-4.4
Cc1ccc(Cl)cc1N1CCN(S(=O)(=O)N2CCCCC2)CC1,13,7,5,-21,3,2249,15
Cc1cccc(N2CCN(C(=O)C3(S(=O)(=O)c4ccc(Cl)cc4)CC3)CC2)c1C,7,4,-7,-15,15,4678,4.1
COc1ccccc1NC(=O)/C(=N/OCc1ccc(C#N)cc1)C(C)=O,nt,nt,nt,-16,4,4598,nt
CCOC(=O)c1ccccc1NC(=O)CN(c1ccccc1OCC)S(C)(=O)=O,5,13,0,-15,-5,9315,6.0
CCC/C=C1/CCCOC(C(=O)NCCNCCO)(C(F)(F)F)C1 (stereo not drawn),nt,nt,nt,-10,-6,3908,nt
CCc1ccc(NC(=O)C(NS(=O)(=O)c2ccc3c(c2)CCN3C(C)=O)C(C)C)cc1 (stereo not drawn),-8,-4,-4,-14,-2,4114,-5.3
COc1cc(C(=O)NNC(=O)C2CC=CCC2C(=O)O)cc(OC)c1OC (stereo not drawn),2,1,4,-31,-5,2172,3.3
CC(=O)c1sc(N/N=C\c2ccc(C)cc2)nc1C,nt,nt,nt,-84,-15,2280,nt
CCc1ccccc1NC(=O)CN(C)C(=O)CSc1nnc(Nc2cccc(C)c2)s1,6,1,-1,-5,-3,2272,1.7
O=C(O)c1cnc2[nH]c3ccccc3n2c1=O,14,2,0,-10,-2,3524,6.3
CCCCCC(C(=O)O)C(C)CC(=O)NC1CCCCC1 (stereo not drawn),nt,nt,-4,-34,13,5113,3.9
COc1ccc(-n2nc(C(=O)NCC(=O)N3CCCC3)c3ccccc3c2=O)cc1,13,2,0,-14,4,3854,2.0
COc1ccc(Cl)cc1C(=O)Nc1cccc(-c2ccc3nncn3n2)c1,9,18,27,-2,-5,3527,6.2

Record cards, as listed above:
O=C(COc1cccc(Cl)c1Cl)Nc1ccc2c(c1)CCC2 is entered as Mtb hypoxia rep: -11; Mtb hypoxia rep growth: -9; Sa ugtP lethal: -10; PrP UTR inh: -12; BJeLR lethal: 6; Autofluor counter: 2677; RN4220 kill: 1.0
COc1ccccc1NC(=O)C1CCCN(c2cc(C)nc3ncnn23)C1 (stereo not drawn) is entered as Mtb hypoxia rep: 7; Mtb hypoxia rep growth: 11; Sa ugtP lethal: -4; PrP UTR inh: -7; BJeLR lethal: -2; Autofluor counter: 2902; RN4220 kill: -5.2

The order is random; any-hit rate near 4%.
